Screening results (PubChem BioAssay)
eIF4H inh – inhibitors of RNA binding by human eIF4H | eIF4H fluorescence polarization binding assay | AID 2012 | 290,000 compounds, 0.94% hits | inhibition, % at 35 µM | Q15056;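 active = 50% or more with normal probe brightness, or confirmed in later tests; inconclusive = above 50% with abnormal brightness, or retests that disagree; inactive = below 50% or failed in later tests; about a fifth of its hits are not listed in these tables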;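 also: calls also rest on retests at 20 µM and on dose response follow-up; 0% = protein and probe with vehicle and 100% = probe without protein; strong numbers were not always called active; many hits fall short of the cut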
Yeast UUG start – modulators of start codon recognition fidelity in yeast. S. cerevisiae UUG-firefly luciferase reporter, luminescence/redox ratio. 350,000 compounds, 0.13% hits. activity score, % at 18.7 µM;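 active = replicate mean at a twofold rise or more, about +100% in these data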;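 also: firefly luciferase made from a UUG start codon reports start codon fidelity; reporter light over untreated wells divided by growth signal over untreated wells; some hits fall short of that in this replicate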
MT1-MMP act inh – inhibitors of human MT1-MMP activation. 360,000 compounds, 0.061% hits. GFP/RFP ratio change, % at 20 µM. P50281. HT1080 RFP-PRO-GFP cells, GFP/RFP ratio fluorescence, overnight; percent of plate control window, DMSO zero;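 active = GFP/RFP ratio change of at least 30% with cell ATP level not reduced by more than half and red fluorescence within 50% of control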; also: strong numbers were not always called active
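Assay system: RFP-PRO-GFP reporter HT1080 cells; read-out basis: GFP/RFP fluorescence ratio; benchmarks: DMSO wells and RFP-L50D-GFP cells; doses: 20 µM single dose, 1% DMSO; schedule: overnight cell settling, then overnight compound exposure, 37 °C, 5% CO2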
PABP polyA inh – blocks human PABP binding to poly(A) RNA; P11940; fluorescence polarization; inhibition, % at 35 µM; 290,000 compounds, 1% hits; AID 2014;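 active = 50% or more with normal probe brightness, or confirmed in later tests; inconclusive = above 50% with abnormal brightness, or retests that disagree; inactive = below 50% or failed in later tests; about a fifth of its hits are not listed in these tables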;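 also: calls also rest on retests at 20 µM and on dose response follow-up; controls were probe without protein and protein plus probe with vehicle; some compounds called inactive have numbers as strong as hits; many hits fall short of the cut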
Target sequence (P11940 whole entry, looked up): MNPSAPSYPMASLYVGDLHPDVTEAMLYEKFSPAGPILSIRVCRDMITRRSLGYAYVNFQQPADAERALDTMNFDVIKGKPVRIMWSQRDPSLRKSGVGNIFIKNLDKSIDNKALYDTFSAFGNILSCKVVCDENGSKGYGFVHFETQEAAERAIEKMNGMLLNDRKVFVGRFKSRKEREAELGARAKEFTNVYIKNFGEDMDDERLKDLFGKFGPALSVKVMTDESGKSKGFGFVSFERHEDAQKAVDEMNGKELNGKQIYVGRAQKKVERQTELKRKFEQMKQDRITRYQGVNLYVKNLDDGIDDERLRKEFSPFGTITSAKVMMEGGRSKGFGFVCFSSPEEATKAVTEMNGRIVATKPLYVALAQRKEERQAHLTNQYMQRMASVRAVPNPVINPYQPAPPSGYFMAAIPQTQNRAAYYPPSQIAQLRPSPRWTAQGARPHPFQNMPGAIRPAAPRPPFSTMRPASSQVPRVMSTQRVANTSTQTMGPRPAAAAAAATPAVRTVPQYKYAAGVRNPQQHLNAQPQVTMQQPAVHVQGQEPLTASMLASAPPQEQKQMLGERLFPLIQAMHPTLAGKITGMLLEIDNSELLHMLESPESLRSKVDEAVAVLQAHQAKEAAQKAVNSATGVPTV
CSC inhib – cancer stem cell inhibition; AID 2717; 300,000 compounds, 1.1% hits; cancer stem cell-like cells viability, luminescence; inhibition, % at 7.5 µM;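 active = mean at 75% or more and at least half the replicates too; inconclusive = mean and replicates disagree; tested in HMLE shEcad cells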;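 also: 0% = median of negative and 100% = median of positive control wells; the first replicate is given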
Rce1 inh – yeast Ras-converting enzyme inhibition; 290,000 compounds, 0.27% hits; AID 2563; calls only; yeast membranes, quenched prenylated peptide cleavage fluorescence; Q03530;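 active = fall in fluorescence gain of 50% or more versus controls, with final raw signal at or below 3038400; inconclusive = same 50% fall but final raw signal above 3038400; inactive = fall in fluorescence gain under 50%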;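 also: plate controls were neutral control wells for no effect and wells lacking membranes for full effect; tested at 10 µM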
Target sequence (Q03530 whole entry, looked up): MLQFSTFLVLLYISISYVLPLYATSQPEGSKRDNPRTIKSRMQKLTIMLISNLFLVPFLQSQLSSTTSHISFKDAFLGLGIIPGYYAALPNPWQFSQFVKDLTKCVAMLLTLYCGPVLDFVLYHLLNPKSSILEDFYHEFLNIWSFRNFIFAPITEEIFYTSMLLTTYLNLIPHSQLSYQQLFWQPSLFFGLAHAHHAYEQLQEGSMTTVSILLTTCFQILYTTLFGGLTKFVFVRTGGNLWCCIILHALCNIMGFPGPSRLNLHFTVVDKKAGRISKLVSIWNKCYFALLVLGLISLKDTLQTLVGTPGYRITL
Env fusion inh – inhibitors of HIV Env-mediated cell fusion. 360,000 compounds, 1.1% hits. AID 651610. HeLa-JRFL Env/CEM21 cell fusion, luciferase. inhibition, % at 12.3 µM;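 active = mean replicate inhibition score of at least 50 and every replicate individually at or above 50; inconclusive = only one of the two criteria met; inactive = mean below 50 and not all replicates reaching 50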;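 also: 0% = plate neutral controls and 100% = maraviroc near 300 nM; one replicate is shown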
eIF4H inh retest – further read-out of eIF4H inh, marked with its call; inhibition, %; compound at 20 µM; confirmation average;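 mean of two retest wells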
PABP polyA inh retest – recorded beside PABP polyA inh, whose call it bears; inhibition, %; compound at 20 µM; confirmation repeats;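 mean of two retest wells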
MT1-MMP act inh RFP – recorded beside MT1-MMP act inh, whose call it bears; RFP signal change, %; measured here: RFP expression control read;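 0 = vehicle wells; hits needed this value within 50% of zero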
An asterisk follows results filed as active; i = inactive; ? = inconclusive; nt = not tested or not shown.

SMILES	eIF4H inh	Yeast UUG start	MT1-MMP act inh	MT1-MMP act inh RFP	PABP polyA inh	CSC inhib	Rce1 inh	Env fusion inh	others
CC[C@H](C)[C@H]1CNC(=O)C(=O)N1CC1CCN(CCc2ccc(Cl)c(Cl)c2)CC1	nt	-17	5	7	nt	nt	nt	21
Cc1ccccc1NS(=O)(=O)c1ccc2c(c1)n(C)c(=O)n2C	6	nt	6	6	0	-8	i	-8
Cc1ccc(N(CC(=O)N/N=C/c2ccc(OCC(N)=O)cc2)S(C)(=O)=O)cc1Cl	4	nt	-2	2	-9	7	i	2
CC1CCN(S(=O)(=O)c2ccc(C(=O)N3CCCC3C(=O)O)cc2)CC1 (centres undefined)	nt	-1	-1	2	nt	-5	nt	0
CS(=O)(=O)c1ccc2nc(NC(=O)c3ccc(NS(=O)(=O)c4cccc([N+](=O)[O-])c4)cc3)sc2c1	-14	nt	2	1	-6	18	i	-94
CC(C)CC(COCc1ccc(Cl)cc1)N1CCN(C(=O)c2ccc(Cl)cc2Cl)CCC1=O (centres undefined)	10	-12	-4	-15	-1	29	i	4
O=C(COc1ccccc1)c1ccccc1	nt	-12	2	4	nt	nt	nt	-14
COc1ccc(Cl)cc1S(=O)(=O)Nc1ccc2c(c1)n(C)c(=O)n2C	6	-15	7	-12	7	4	i	-7
COc1ccc(CCNS(=O)(=O)c2ccc(Br)cc2)cc1OC	2	16	-2	1	2	-5	i	20
N#Cc1c(Sc2ncc(C(F)(F)F)cc2Cl)nsc1C/C=N\OCc1ccccc1Br	35	nt	-19	2	14	-26	i	nt

The closing 3 entries of the part before are carried over, then new ones follow.
SMILES	eIF4H inh	Yeast UUG start	MT1-MMP act inh	MT1-MMP act inh RFP	PABP polyA inh	CSC inhib	Rce1 inh	Env fusion inh	others
COc1ccc(Cl)cc1S(=O)(=O)Nc1ccc2c(c1)n(C)c(=O)n2C	6	-15	7	-12	7	4	i	-7
COc1ccc(CCNS(=O)(=O)c2ccc(Br)cc2)cc1OC	2	16	-2	1	2	-5	i	20
N#Cc1c(Sc2ncc(C(F)(F)F)cc2Cl)nsc1C/C=N\OCc1ccccc1Br	35	nt	-19	2	14	-26	i	nt
Nc1ncnc(N2CCc3ccccc32)c1[N+](=O)[O-]	8	-14	-21	-14	3	1	i	67*
COc1ccccc1N1CCN(C(=O)c2cc3c(s2)CCCCC3)CC1	6	6	-2	-2	-7	nt	i	18
CCOc1ccc(C(=O)/C=C/c2ccc(OC)c(OC)c2)cc1	-8	nt	-3	-14	3	12	i	6
CCCCOc1ccc(N2C(N)=NC(N)=NC23CCCCC3)cc1	-7	-17	-2	-7	-1	-12	i	10
O=C(Cc1c(Sc2ccccc2)c2ccccc2n1Cc1ccccc1)NCCO	-3	nt	-2	-6	0	-9	i	28
COc1ccc(-c2nc3c(Cl)cc(C(F)(F)F)cn3c2Cc2cccc(F)c2)cc1OC	nt	-28	-3	-5	nt	nt	nt	-22
Cn1ncc([N+](=O)[O-])c1C(=O)N/N=C/c1cccc([N+](=O)[O-])c1	0	nt	0	-1	6	-2	i	3
CC(SC1=NCCS1)C(=O)Nc1nnc(-c2ccc(Br)cc2)s1 (centres undefined)	7	-6	-4	-14	0	56	i	-2
CSc1cccc(CNC(=O)CC2C(=O)NCCN2CC(C)(C)C)c1 (centres undefined)	54	nt	-11	-2	20	1	i	8	eIF4H inh retest=3;PABP polyA inh retest=5
CCOc1ccc(N(CC(=O)Nc2ccccc2C)S(=O)(=O)c2c(C)[nH]c(=O)[nH]c2=O)cc1	6	15	7	5	-4	14	i	4
Nc1ccccc1-c1nc2ccccc2s1	-2	-14	0	1	-3	0	i	-259
Cn1c(N)c(C(=O)COC(=O)c2ccccc2C(=O)c2ccc(Cl)c([N+](=O)[O-])c2)c(=O)n(C)c1=O	nt	-6	-2	1	nt	?	nt	nt
COC(=O)C(CSCc1ccccc1)NC(=O)CSc1nc(C)cc(=O)[nH]1 (centres undefined)	-3	nt	4	4	6	11	i	3
CC(=O)c1ccc(N2CCN(S(=O)(=O)c3cccc(S(=O)(=O)N4CCOCC4)c3)CC2)cc1	-8	-6	-1	-2	-6	-6	i	nt
Cc1ccc(S(=O)(=O)N(C)C)cc1NC(=S)N1CCc2ccccc21	-2	-21	-4	-4	-7	19	i	13
Nc1cc([N+](=O)[O-])ccc1Nc1ccc(O)cc1	9	-27	16	1	8	37	i	30
COC(=O)[C@H]1C[C@@H]1[C@H](NS(=O)(=O)c1ccc2ccccc2c1)c1ccccc1	-1	-11	-5	-3	0	2	i	-28
CN1C(=O)C(CC(=O)Nc2ccc(F)cc2)N(Cc2ccco2)C1=S (centres undefined)	-7	nt	4	3	-9	-13	i	6
CC(C)(C)n1nnnc1C(c1ccc(C(F)(F)F)cc1)N(Cc1ccccc1)Cc1ccco1 (centres undefined)	-13	nt	-21	-27	-4	-13	i	nt
CC1(C(=O)Nc2cccc(Oc3ccccc3)c2)CCN1Cc1cc2ccccc2o1 (centres undefined)	nt	-17	-6	-8	nt	nt	nt	24
N/C(=N\OC(=O)c1ccccc1Cl)c1ccc(Cl)cc1	-7	nt	-1	7	3	4	i	nt
COCOc1cccc(CN2CCC2(C)C(=O)Nc2ccc(C)c(O)c2)c1 (centres undefined)	nt	14	8	-3	nt	nt	nt	4
Cc1ccc(Nc2nc(N)nc(CN3CCN(C(=O)c4ccco4)CC3)n2)cc1Cl	-2	nt	-3	-3	6	10	i	-24
C=CCc1cc(/C=C2/NC(=O)N(CC(=O)OC)C2=O)cc(OC)c1O	-6	-5	2	0	7	10	i	-3
Cn1c(C(=O)O)cc2cc(Oc3ccccc3)ccc21	-13	-13	-3	-1	-4	-3	i	-4
CCOc1ccc(N2C(=O)C(Cl)=C(N3CCOCC3)C2=O)cc1	-7	-4	0	0	-1	-11	i	9
CCOC(=O)COc1ccsc1C(=O)OC	3	5	5	12	-4	-2	i	-100
CC(=O)c1cccc(NC(=O)Cn2cnc(S(=O)(=O)N3CCCC3)c2)c1	3	-20	1	0	2	0	i	5
O=C(O)CC(C(=O)OC1CCCCC1)N1CCOCC1 (centres undefined)	0	3	-1	0	4	-6	i	nt
COc1cccc(C(=O)C2CCCN(C(=O)c3ccccn3)C2)c1 (centres undefined)	4	-5	3	1	16	nt	i	7
COC(=O)c1cc2c(cc1N)OCCO2	-13	nt	0	4	3	-1	i	9
O=C(CCN1C(=O)/C(=C\C=C\c2ccccc2)SC1=S)Nc1ccc(C(=O)O)cc1	68*	2	-3	1	49*	19	i	-74	eIF4H inh retest=90*;PABP polyA inh retest=71*
O=C(NC(=S)Nc1nc(-c2cccc([N+](=O)[O-])c2)cs1)c1cc(Cl)ccc1Cl	0	-11	9	-15	-6	43	i	4
O=C(Nc1ccccc1C(=O)NC1CC1)c1ccccc1F	nt	-17	-2	1	nt	3	nt	nt
CCOC(=O)C(NC(=O)c1ccccc1)(N1CCOCC1)C(F)(F)F (centres undefined)	4	-11	4	6	5	8	i	nt
COC(=O)c1ccc(/C=C/c2c(-c3ccsc3)oc3ccc(N4CCOCC4)cc23)cc1	1	-25	8	-3	-1	109*	i	nt
CN(C)c1ncnc2c1ncn2CCn1cnc2c(N(C)C)ncnc21	nt	-2	6	0	nt	nt	nt	-6
COc1ccc2[nH]c(O)c(N=O)c2c1	-4	nt	-1	-1	-13	-5	i	-38
O=C1CCCC(O)=C1N=Nc1ccc(S(=O)(=O)N2CCOCC2)cc1	28	-19	49*	47*	14	-19	i	-6
CCc1ccc(NC(=O)CCc2nnc3ccc(N4CCCC4)nn23)cc1	-2	-4	0	1	-11	-3	i	0
O=C(c1ccc(Cn2cc([N+](=O)[O-])cn2)o1)N1CCCCCC1	-7	-19	2	2	-2	5	i	-3
CCOC(=O)c1c2n(c3c(NCc4ccccc4)ncnc13)CCCC2	1	1	4	-2	-1	14	i	nt
COc1cc(/C=C/C(=O)OCC(=O)Nc2ccc(C)c(S(=O)(=O)N3CCCCC3)c2)ccc1O	-4	0	2	-1	0	-13	i	-11
O=c1cc(N2CCCCC2)c(-c2ccccc2)nn1Cc1cccc(F)c1	-10	nt	-2	-6	10	76*	i	16
CC(=O)Nc1ccc(S(=O)(=O)Nc2nc3ccc([N+](=O)[O-])cc3s2)cc1	-2	nt	1	6	8	-4	i	12
COc1ccc(OCC(=O)OC(C)CN2CCCCC2)cc1 (centres undefined)	2	-21	-1	-3	12	-9	nt	10
CCS(=O)(=O)N1Cc2ccccc2CC1C(=O)Nc1nc(C)cs1 (centres undefined)	-1	nt	4	1	5	-8	nt	-37
CCOC(=O)C1CCCN(C(=O)c2cc(S(=O)(=O)N(C)C)ccc2N2CCCC2)C1 (centres undefined)	nt	-10	9	3	nt	-11	i	5
O=C(CC1C[C@H](C(=O)N2CCOCC2)[C@@]2(CCC3CCCC3)c3[nH]c4ccccc4c3CCN2C1=O)NCCCn1ccnc1 (some centres undefined)	nt	-16	-5	-1	nt	nt	nt	-116
O=C(NCc1ccccn1)c1ccc2nc(C3CCCCC3)oc2c1	-8	-10	-6	-3	8	8	i	3
Additional results follow.
SMILES	eIF4H inh	Yeast UUG start	MT1-MMP act inh	MT1-MMP act inh RFP	PABP polyA inh	CSC inhib	Rce1 inh	Env fusion inh	others
CCCOc1ccc(C(=O)NNC(=S)NC(=O)CC)cc1	17	-26	5	0	0	24	i	60*
COc1cc(NS(=O)(=O)c2ccc(NC(=O)COc3cccc(C)c3)cc2)nc(OC)n1	11	-6	1	3	20	-13	i	2
COc1ccccc1Nc1cc(N2CCOCC2)c2nonc2c1[N+](=O)[O-]	-8	nt	-1	-3	-15	13	i	1
Cc1coc(C)c1C(=O)Nc1ccc2ccccc2c1	0	-13	1	3	1	nt	i	nt
O=C(COC(=O)c1ccccc1Sc1ccc(C(F)(F)F)cc1[N+](=O)[O-])NC(=O)NC1CCCC1	-2	7	-4	-8	-8	15	i	18
CC(NC(=O)Nc1cccc(F)c1)c1ccc2c(c1)OCO2 (centres undefined)	-8	-13	1	1	9	-2	i	-2
O=C(/C=N/NC(=O)c1ccccc1Br)c1ccccc1	4	nt	0	0	0	2	i	6
Cc1ccc(NC(=O)CCc2c(C)nn(-c3ccc(N4CCOCC4)nn3)c2C)cc1	-17	-21	0	-2	-12	9	i	-13
O=C(NC1CCCC1)c1c(O)nc2sccn2c1=O	nt	7	4	6	nt	-15	i	-9
NC(=O)c1ccc(-c2ccccc2F)cc1	-2	nt	0	3	6	6	i	-8
CC(C)(C)NC(=O)Cn1nnc(-c2ccc(OCc3c(F)cccc3Cl)cc2)n1	1	-2	2	-13	-8	78*	i	-18
CCOC(=O)C1CCCN(c2ccc(NC(=O)c3snc4c(=O)[nH]cnc34)cc2)C1 (centres undefined)	1	6	11	-3	2	-4	i	nt
Cc1ccc(CN2CCN(c3ccccc3)CC2)o1	1	-9	3	1	2	-8	i	14
CCCCSc1nnc([C@H](CC(C)C)NC(=O)OC(C)(C)C)o1	-4	nt	-3	-4	-5	-26	i	-37
CCCCCCn1nc(C(=O)Nc2nc3c(s2)CCCC3)c2ccccc2c1=O	-16	nt	-7	-7	-3	12	i	8
CCN1CCN(c2c(/C=C3\SC(=S)N(Cc4ccco4)C3=O)c(C)c(C#N)c(=O)n2C)CC1	?	nt	-126	6	53*	14	nt	-14	PABP polyA inh retest=126*
Cc1cccc2cc(C#N)c(N3CCOCC3)nc12	-7	-6	4	2	11	-6	i	-3
